Screens as filed in PubChem BioAssay.
Rango release inh – inhibition of RanGTP-driven Rango-importin beta dissociation; O95149+P62826; Biochemical FRET Rango-importin beta, RanGTP-induced dissociation; Potency, µM (titrated, usually from 46.1 µM), inactives show at the top dose activity change, negative = inhibition; hit rate 0.071% among 340,000; AID 540253; active means falling FRET ratio curve, often poorly fitted, with flat reads before Ran was added; inconclusive means other falling curves, or compound fluorescence or quenching; inactive means flat or rising ratio curve;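 note: potency is the fitted concentration of half-maximal effect; % of control where 0% means no effect; nearly all actives have a fitted effect of over 45% in size; -100% = wells without RanGTP and RCC1; the record marks most hits as doubtful in a second field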
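Quantitative HTS using a FRET biosensor: 0.1 uM Rango, 0.25 uM importin beta, 0.6 uM Ran, 2 mM GTP, 0.2 uM RCC1 final, PBS with DTT, Tween-20 and BSA. Post-read taken 45 min after Ran addition.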
GLA inh pH 4.5 – alpha-galactosidase A (human) inhibition, pH 4.5; activity change, negative = inhibition, % at 105 µM; 230,000 tested, under 10 active; purified enzyme, 4-MU-alpha-Gal fluorescence, pH 4.5; P06280; AID 1467; inconclusive = small, poorly fitted or top-dose-only inhibition, or a rising curve; inactive = flat fitted curve, though single readings scatter; no compound was filed as active;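 note: 0% = full activity with enzyme and -100% = basal without enzyme; dose as in the result columns while the protocol names 77 µM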
Rango complex inh – Rango-importin beta binding inhibition. Rango CFP/YFP FRET sensor + importin beta, 45 min. Potency, µM (top dose mostly 92.2 µM), inactives show at the highest dose inhibition of complex formation. AID 540263. Q14974. hit rate 0.031% among 340,000; active = rising FRET ratio curve, often small or poorly fitted; inconclusive = mostly compound fluorescence or quenching in the first reads; inactive = flat curves in all reads;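 note: potency is the fitted concentration of half-maximal effect; 0% = DMSO wells and 100% = buffer wells lacking importin beta; nearly all actives have a fitted effect of over 15% in size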
Target sequence (Q14974 whole entry, looked up): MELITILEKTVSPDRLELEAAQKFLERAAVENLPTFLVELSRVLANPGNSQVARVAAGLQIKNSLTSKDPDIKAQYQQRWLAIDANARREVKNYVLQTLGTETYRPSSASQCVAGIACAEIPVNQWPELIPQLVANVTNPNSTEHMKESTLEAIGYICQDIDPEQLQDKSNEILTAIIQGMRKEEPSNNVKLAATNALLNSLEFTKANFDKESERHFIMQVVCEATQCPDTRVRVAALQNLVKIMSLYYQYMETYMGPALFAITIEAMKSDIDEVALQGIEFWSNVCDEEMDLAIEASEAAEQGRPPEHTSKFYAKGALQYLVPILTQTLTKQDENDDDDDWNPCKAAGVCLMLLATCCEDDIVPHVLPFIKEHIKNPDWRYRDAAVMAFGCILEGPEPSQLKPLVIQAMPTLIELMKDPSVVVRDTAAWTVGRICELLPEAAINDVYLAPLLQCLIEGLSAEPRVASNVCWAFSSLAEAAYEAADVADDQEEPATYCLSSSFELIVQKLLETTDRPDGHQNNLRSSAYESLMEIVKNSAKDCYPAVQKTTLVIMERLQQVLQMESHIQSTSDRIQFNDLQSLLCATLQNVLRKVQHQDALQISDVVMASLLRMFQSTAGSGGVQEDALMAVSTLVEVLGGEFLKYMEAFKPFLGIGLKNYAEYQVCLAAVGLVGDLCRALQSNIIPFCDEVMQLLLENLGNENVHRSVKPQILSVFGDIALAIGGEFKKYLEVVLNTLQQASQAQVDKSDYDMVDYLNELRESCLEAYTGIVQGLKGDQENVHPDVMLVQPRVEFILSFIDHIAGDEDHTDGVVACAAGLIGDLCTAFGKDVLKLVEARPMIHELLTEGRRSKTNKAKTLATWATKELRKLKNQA
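Inhibition scored from the CFP 486 nm/YFP 530 nm FRET ratio 45 min after adding 0.125 microM importin beta to 50 nM Rango biosensor preincubated 5 min with compound (room temperature, PBS with DTT, Tween-20, BSA). No-importin wells as positive control.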
miR-21 reporter – raises the signal of a miR-21 reporter | 340,000 tested, under 10 active | HeLa miR-21 FLuc reporter, luciferase, 48 h | Potency, µM (doses to about 38.3 µM), for the others: at the highest dose reporter change, positive = more light; active = well fitted rising curve with a large enough effect; inconclusive = small, poorly fitted or top-dose-only effect; inactive = no such curve, though single readings can be large or run the other way;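 note: % of control where 0% means no effect; miR-21 action dims this reporter so a rising signal means less miR-21 action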
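Using DMEM plus 10% FBS, HeLa miR-21-FLuc cells are incubated with test compounds (final up to about 40uM) for 48 hours; firefly luciferase signal is then imaged following reagent-mediated lysis.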
Active calls of the source: *; & = joins results of further samples; [ ] = remark or other dose. Not all compounds are listed; the hit share may differ from the screen's.

For COc1cc(NC(=O)C2CCCN(S(=O)(=O)c3ccc4c(c3)oc(=O)n4C)C2)cc(OC)c1 (stereo not given) the results were Rango release inh -10.6%, GLA inh pH 4.5 -2.3, Rango complex inh -1.7% and miR-21 reporter -8.1%.
Screening O=C(/C=C/c1cccs1)N1CCN(c2ccccc2)CC1 returned Rango release inh -7.9%, GLA inh pH 4.5 0.9, Rango complex inh 0.4% and miR-21 reporter -4.7%.
`COc1ccc(CCNC(=O)Oc2ccccc2)cc1OC` gave Rango release inh 14.2%, Rango complex inh -1.7% and miR-21 reporter -1.3%.
Screening C/C(=N\OCC(=O)Nc1ccc(OC(F)(F)F)cc1)c1ccc2c(c1)OCCO2 returned Rango release inh 26.2%, GLA inh pH 4.5 4.6, Rango complex inh 0.4% and miR-21 reporter -6.4%.
[N-]=[N+]=CC(=O)C(Cc1ccccc1)N1C(=O)c2ccccc2C1=O (stereo not given) was read as Rango release inh -19.7%, GLA inh pH 4.5 -0.9, Rango complex inh 0.5% and miR-21 reporter -0.1%.
`CCOc1cc(C(=O)Nc2nnc(S(=O)(=O)N3CCOCC3)s2)cc(OCC)c1OCC` gave Rango release inh 0.5%, Rango complex inh -0.4% and miR-21 reporter -1.8%.
For CCCc1nc2nc(C)c(NS(=O)(=O)c3ccc(CC(C)C)cc3)c(=O)n2[nH]1 the results were Rango release inh -3.5%, Rango complex inh 0.6% and miR-21 reporter 1.8%&1.7%.
Screening Cc1cccc(OCC(=O)N2CCN(C(=O)COc3ccc(Cl)cc3)CC2)c1 returned Rango release inh 7.3%, Rango complex inh -0.1% and miR-21 reporter 6.5%.
`O=C(NCC1CCCN1S(=O)(=O)c1ccccc1)c1cccc(Cl)c1` (stereo not given) gave Rango release inh -5.7% and Rango complex inh 0.9%.
For CN(Cc1nccn1C)C(=O)CC1C(=O)NCCN1Cc1ccc(F)cc1Cl (stereo not given) the results were Rango release inh 0.0%, Rango complex inh 0.4% and miR-21 reporter -1.8%.
For Nc1nc(CN2CCN(c3ccccc3F)CC2)nc(Nc2ccccc2)n1 the results were Rango release inh -7.0%, GLA inh pH 4.5 3.7, Rango complex inh 1.7% and miR-21 reporter -9.4%.
`NCCCC[C@H](NC(=O)C1CCNCC1)c1nnc(CN)o1` gave GLA inh pH 4.5 0.7 and miR-21 reporter 0.5%.

Continued, overlapping the part above by 3 compounds.
For CN(Cc1nccn1C)C(=O)CC1C(=O)NCCN1Cc1ccc(F)cc1Cl (stereo not given) the results were Rango release inh 0.0%, Rango complex inh 0.4% and miR-21 reporter -1.8%.
For Nc1nc(CN2CCN(c3ccccc3F)CC2)nc(Nc2ccccc2)n1 the results were Rango release inh -7.0%, GLA inh pH 4.5 3.7, Rango complex inh 1.7% and miR-21 reporter -9.4%.
`NCCCC[C@H](NC(=O)C1CCNCC1)c1nnc(CN)o1` gave GLA inh pH 4.5 0.7 and miR-21 reporter 0.5%.
O=C(Cc1ccc(Cl)c(Cl)c1)NC1CCCCCC1 was read as Rango release inh -10.9%, Rango complex inh 2.0% and miR-21 reporter -32.7%.
COc1ccc(CCNS(=O)(=O)c2ccc(OC)c(OC)c2)cc1OC was read as Rango release inh 15.7%, Rango complex inh 0.1% and miR-21 reporter 1.3%.
COC(=O)C(=C/C=C/c1ccco1)C(=O)OC was read as Rango release inh 12.3%, GLA inh pH 4.5 -11.6, Rango complex inh 3.1% and miR-21 reporter 0.8%.
For O=C(Nc1ccc(Cl)cc1)OCCn1nnnc1C(c1ccccc1)N1CCOCC1 (stereo not given) the results were Rango release inh 8.5%, GLA inh pH 4.5 -1.6, Rango complex inh 1.3% and miR-21 reporter -7.3%.
For COc1ccc(NC(=O)Nc2c(C)n(C)n(-c3ccccc3)c2=O)cc1OC the results were Rango release inh -7.1%, Rango complex inh 0.2% and miR-21 reporter 3.8%.
CCOc1ccc(NC(=S)N(CCc2ccncc2)C(C)C)cc1 was read as Rango release inh 0.1%, GLA inh pH 4.5 9.5, Rango complex inh -2.0% and miR-21 reporter -3.4%.
For CCN(CC)CC#CCC(OC)(c1ccccc1)c1ccccc1 the results were Rango release inh 4.3%, GLA inh pH 4.5 3.0, Rango complex inh 2.1% and miR-21 reporter 3.3%.
For CC1(C)CC2CC(C)(CN2S(=O)(=O)c2ccc(N)cc2)C1 (stereo not given) the results were Rango release inh 8.4%, GLA inh pH 4.5 0.9, Rango complex inh inconclusive and miR-21 reporter 1.0%.
For CCOC(=O)[C@H]1[C@H]2COc3ccc(OC)cc3[C@H]2N2C(=O)CNC(=O)[C@@]12C the results were Rango release inh 8.3% and Rango complex inh 0.9%.
Screening COC(=O)C(NC(C)=O)(Nc1ccc(C)cn1)C(F)(F)F (stereo not given) returned Rango release inh 20.7%, GLA inh pH 4.5 2.2, Rango complex inh 1.8% and miR-21 reporter -1.2%.
`COc1ccc(C(=O)c2cnc3cc4c(cc3c2C)OCO4)cc1` gave Rango release inh -8.1%, GLA inh pH 4.5 5.2, Rango complex inh 2.7% and miR-21 reporter -9.2%.
`CCOC(=O)Cc1ccc(NC(=O)c2cccc([N+](=O)[O-])c2)cc1` gave Rango release inh -5.7%, GLA inh pH 4.5 2.9, Rango complex inh 2.5% and miR-21 reporter -14.9%.
Screening COC(=O)[C@]1(C)N[C@H](CN(C)S(=O)(=O)c2ccc(C(F)(F)F)cc2)[C@@H]2C(=O)N(C)C(=O)[C@@H]21 returned Rango release inh -0.3% and Rango complex inh 2.2%.
`CCn1c(C)cc(/C=C2\NC(=O)N(Cc3ccccc3)C2=O)c1C` gave Rango release inh -27.0%, GLA inh pH 4.5 -0.7, Rango complex inh inconclusive and miR-21 reporter -4.5%.
O=C(C(NS(=O)(=O)c1cccc2nsnc12)c1ccccc1)N1CCN(c2ccccn2)CC1 (stereo not given) was read as Rango release inh 12.6%, GLA inh pH 4.5 4.3, Rango complex inh 2.9% and miR-21 reporter 1.1%.
`O=C(O)CN1C(=O)/C(=C\c2cccc(OCc3ccc(F)cc3)c2)SC1=S` gave Rango release inh 6.0%, Rango complex inh -0.4% and miR-21 reporter -12.9%.
Screening COC(=O)c1ccc(OCC(=O)c2ccccc2OC)cc1 returned Rango release inh 26.7%, GLA inh pH 4.5 -7.1, Rango complex inh 2.1% and miR-21 reporter -38.6%.
`COC(=O)c1ccc(N=NN2CCCCC2)cc1` gave Rango release inh -0.5%, GLA inh pH 4.5 5.5, Rango complex inh 0.3% and miR-21 reporter -82.2%.
For O=C(CSc1nnc(CNc2ccccc2)o1)N1CCc2ccccc21 the results were Rango release inh -0.9%, GLA inh pH 4.5 1.9, Rango complex inh -0.5% and miR-21 reporter -3.5%.
For CCOc1ccc(N2CC(C(=O)OCC(=O)c3ccc(OC)cc3)CC2=O)cc1 (stereo not given) the results were Rango release inh 0.7%, Rango complex inh 2.2% and miR-21 reporter -0.7%.
`CNC(=O)COc1coc(CN2CCN(c3cccc(Cl)c3)CC2)cc1=O` gave Rango release inh 1.3%, Rango complex inh -0.8% and miR-21 reporter 3.7%.
COc1ccccc1C(=O)Nc1ccnn1C1CCN(C(=O)C(C)(C)C)CC1 was read as Rango release inh inconclusive, Rango complex inh 0.4% and miR-21 reporter -6.8%.
Screening CCOC(=O)/C=C1\CN(Cc2ccc(OC)cc2)S(=O)(=O)c2ccccc21 returned Rango release inh -13.0%, Rango complex inh -0.5% and miR-21 reporter 2.3%.
For N#CCCN(C(=O)CSc1n[nH]c(=O)[nH]c1=O)c1ccccc1 the results were Rango release inh -17.2% and Rango complex inh -0.1%.
Cc1ccccc1S(=O)(=O)Nc1ncc(C(F)(F)F)cc1Cl was read as Rango release inh 12.5%, GLA inh pH 4.5 -5.6, Rango complex inh 0.1% and miR-21 reporter 5.2%.
Screening CC(C)Nc1nc(NC(C)C)nc(OCCOC(=O)c2ccccc2)n1 returned Rango release inh -8.9%, GLA inh pH 4.5 -6.4, Rango complex inh 1.6% and miR-21 reporter -17.6%.
Screening Cn1c(SC/C=C/c2ccccc2)nnc1-c1cccs1 returned Rango release inh -3.0%, GLA inh pH 4.5 -4.6, Rango complex inh 0.0% and miR-21 reporter -23.9%.
Screening CCCn1c(N)c(C(=O)CSc2nc3ncc(Cl)cc3[nH]2)c(=O)[nH]c1=O returned Rango release inh 8.1% and Rango complex inh 0.0%.
`COC(=O)c1ccc(NC(=S)NCc2ccco2)cc1` gave Rango release inh -10.4%, GLA inh pH 4.5 -6.1, Rango complex inh 1.9% and miR-21 reporter -21.1%.
For O=C(NC1CCCc2ccccc21)c1cc(F)cc(F)c1 (stereo not given) the results were Rango release inh -2.6%, Rango complex inh -1.4% and miR-21 reporter -0.1%.
Screening Nc1ncc(Br)cc1N=Cc1ccccc1 returned Rango release inh inconclusive, GLA inh pH 4.5 2.7, Rango complex inh inconclusive and miR-21 reporter -48.8%.
COc1ccc(CNC(=O)Cn2nc(C)n3cccc3c2=O)cc1 was read as Rango release inh 16.8%, Rango complex inh -1.5% and miR-21 reporter -0.5%&-13.8%.
Screening CC1=C(C(N)=O)C(c2cccs2)n2nc(-c3cccc(C)c3)nc2N1 (stereo not given) returned Rango release inh -2.6%, GLA inh pH 4.5 -1.2, Rango complex inh 0.0% and miR-21 reporter -2.9%.
For CC1(C)CC(=O)c2cnc3nc4ccccc4n3c2C1 the results were Rango release inh -0.7%, GLA inh pH 4.5 -2.2, Rango complex inh -1.4% and miR-21 reporter 5.8%.
C=CCn1c(SCC(=O)NCc2ccc3c(c2)OCO3)nnc1-c1cccnc1 was read as Rango release inh 1.8%, GLA inh pH 4.5 -4.9[21.1 µM], Rango complex inh 0.9% and miR-21 reporter 0.7%.
`O=C(COC(=O)/C=C/c1cn(-c2ccccc2)nc1-c1cccnc1)Nc1ccc(Cl)cc1Cl` gave Rango release inh -5.7%, GLA inh pH 4.5 -8.2, Rango complex inh -4.2% and miR-21 reporter 1.2%.
For CN1CCc2c(sc(/N=C/c3cccs3)c2C(N)=O)C1 the results were Rango release inh inconclusive, GLA inh pH 4.5 -0.5, Rango complex inh inconclusive and miR-21 reporter -38.9%.
Screening CCC1CCC(C(=O)NC(C(=O)NCCN2CCOCC2)C(C)C)CC1 (stereo not given) returned Rango release inh -1.9%, Rango complex inh -2.7% and miR-21 reporter 5.4%.
Screening COc1ccc(/C=C/C(=O)NC(=S)NNC(=O)c2c(-c3ccccc3)noc2C)cc1 returned Rango release inh -7.1%, GLA inh pH 4.5 -6.6, Rango complex inh -1.2% and miR-21 reporter -17.9%.
Screening CC/C(O)=C1\C(=O)CC(C)(C)CC1=Nc1ccccc1C returned Rango release inh 6.8%, GLA inh pH 4.5 8.3, Rango complex inh 1.9% and miR-21 reporter -29.1%.
Screening CC(C)CC(NC(=O)c1ccc(Cl)cc1)C(=O)OCC(=O)c1ccc2c(c1)NC(=O)CO2 (stereo not given) returned Rango release inh -12.3%, GLA inh pH 4.5 -0.6, Rango complex inh 8.0% and miR-21 reporter inconclusive.
COc1ccc(F)cc1C1=CC(=O)C[C@H](c2ccc3c(c2)OCO3)C1 was read as Rango release inh 4.8% and Rango complex inh 5.4%.
For CC(Sc1nc2scc(-c3ccccc3)c2c(=O)[nH]1)C(=O)NC(N)=O (stereo not given) the results were Rango release inh -3.8%, GLA inh pH 4.5 -8.8, Rango complex inh 0.2% and miR-21 reporter 8.6%.
Cc1ccc(NC(=O)COc2ccc(-c3nnco3)cc2)cc1S(=O)(=O)N1CCOCC1 was read as Rango release inh -1.2%, GLA inh pH 4.5 5.4, Rango complex inh 4.1% and miR-21 reporter 14.6%.
CC1(C)Cc2cccc(Oc3cc(NN4CCCCC4)c([N+](=O)[O-])cc3[N+](=O)[O-])c2O1 was read as Rango release inh -17.2%, Rango complex inh -2.0% and miR-21 reporter -4.1%.
CCCCCCNC(=O)c1ncn[nH]1 was read as Rango release inh -2.4%, GLA inh pH 4.5 0.4, Rango complex inh 7.0% and miR-21 reporter 5.9%.
C(=N/Nc1nc(-c2ccccc2)cc(-c2ccccc2)n1)/c1cccnc1 was read as Rango release inh 22.0%, GLA inh pH 4.5 4.0, Rango complex inh 0.3% and miR-21 reporter 3.9%.
